UUG fidelity: yeast start codon fidelity modulation. S. cerevisiae UUG-firefly luciferase reporter, luminescence/redox ratio. activity score, % at 18.7 µM. 0.13% of 350,000 active. AID 602363;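 active means replicate mean at a twofold rise or more, about +100% in these data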;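 further: firefly luciferase made from a UUG start codon reports start codon fidelity; reporter light over untreated wells divided by growth signal over untreated wells; some hits fall short of that in this replicate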
HIV Env fusion: inhibitors of HIV Env-mediated cell fusion; HeLa-JRFL Env/CEM21 cell fusion, luciferase; inhibition, % at 12.3 µM; 1.1% of 360,000 active;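 active means mean replicate inhibition score of at least 50 and every replicate individually at or above 50; inconclusive means only one of the two criteria met; inactive means mean below 50 and not all replicates reaching 50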;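 further: 0% = plate neutral controls and 100% = maraviroc near 300 nM; one replicate is shown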
* hit, by the source's call; ? = inconclusive; [ ] = remark or other dose.

SMILES	UUG fidelity	HIV Env fusion
Cc1noc(C)c1S(=O)(=O)N(C)C[C@@H]1Oc2ccc(NC(=O)Cc3ccccc3)cc2CC(=O)N([C@@H](C)CO)C[C@H]1C	13	3[16.7 µM]
Cc1noc(C)c1S(=O)(=O)Nc1ccc2c(c1)C(=O)N([C@H](C)CO)C[C@@H](C)[C@@H](CN(C)Cc1ccncc1)OCCCC[C@H](C)O2	5	-10[16.7 µM]
C[C@@H]1CN([C@@H](C)CO)C(=O)c2cc(NC(=O)Cc3cn(C)c4ccccc34)ccc2O[C@H]1CN(C)S(=O)(=O)c1ccc(F)cc1	-5	-17[16.7 µM]
C[C@@H]1CN([C@H](C)CO)S(=O)(=O)c2ccc(Br)cc2O[C@@H]1CN(C)S(=O)(=O)c1ccc(F)cc1	9	18[16.7 µM]
C[C@@H]1CCCCO[C@@H](CN(C)Cc2ccccc2)[C@H](C)CN([C@@H](C)CO)C(=O)c2cc(NC(=O)Cc3ccccc3)ccc2O1	11	-1[16.7 µM]
C[C@@H]1CN([C@H](C)CO)C(=O)c2cc(NC(=O)c3ccccc3)ccc2O[C@@H](C)CCCCO[C@H]1CN(C)Cc1ccccc1	10	-1[16.7 µM]
Cc1noc(C)c1S(=O)(=O)N(C)C[C@@H]1Oc2ccc(NS(=O)(=O)c3cccs3)cc2CC(=O)N([C@@H](C)CO)C[C@@H]1C	12	-6[16.7 µM]
C[C@H]1CN([C@@H](C)CO)S(=O)(=O)c2ccc(C3=CCCCC3)cc2O[C@@H]1CN(C)C(=O)c1ccccc1	11	-5[16.7 µM]
CO[C@H]1CN(C)C(=O)c2ccc(NC(=O)c3cccc(F)c3)cc2OC[C@@H](C)N(C(C)=O)C[C@H]1C	2	0[16.7 µM]
COc1ccc(CN(C)C[C@H]2OCCCC[C@@H](C)Oc3ccc(NC(=O)Nc4cccc5ccccc45)cc3C(=O)N([C@H](C)CO)C[C@@H]2C)cc1	-1	6[16.7 µM]
C[C@@H]1CCCCO[C@@H](CN(C)CC2CC2)[C@H](C)CN([C@@H](C)CO)C(=O)c2cc(NC(=O)Nc3ccc(C(F)(F)F)cc3)ccc2O1	17	12[16.7 µM]
CC(C)CC#Cc1cnc2c(c1)C(=O)N([C@H](C)CO)C[C@H](C)[C@H](CN(C)Cc1ccc3c(c1)OCO3)O2	1	-1[16.7 µM]
COc1cccc(-c2ccc3c(c2)O[C@H](CN(C)C(=O)C2CCCCC2)[C@H](C)CN([C@H](C)CO)S3(=O)=O)c1	8	4[16.7 µM]
O=C(N[C@@H]1CC[C@H](CCNS(=O)(=O)c2ccccc2)O[C@@H]1CO)c1cnccn1	-2	-12[16.7 µM]
CCCC#Cc1ccc2c(c1)O[C@@H](CN(C)Cc1cncnc1)[C@H](C)CN([C@H](C)CO)S2(=O)=O	6	?
Cn1cnc(CCNC(=O)C[C@@H]2CC[C@H]3[C@@H](COC[C@H](O)CN3C(=O)C3CCCC3)O2)c1	-1	8[16.7 µM]
C[C@H](CO)N1C[C@H](C)[C@H](CN(C)Cc2ccc(C(=O)O)cc2)OCCCC[C@H](C)Oc2ccc(NC(=O)Nc3ccc(C(F)(F)F)cc3)cc2C1=O	11	10[16.7 µM]
Cc1ccc(-c2ccc3c(c2)O[C@@H](CN(C)Cc2ccccn2)[C@@H](C)CN([C@H](C)CO)S3(=O)=O)cc1	-20	17[16.7 µM]
C[C@@H]1CCCCO[C@H](CN(C)S(=O)(=O)c2ccc(F)cc2)[C@@H](C)CN([C@H](C)CO)C(=O)c2cc(NS(=O)(=O)c3ccc(Cl)cc3)ccc2O1	4	-20[16.7 µM]
C[C@H](CO)N1C[C@H](C)[C@@H](CN(C)C(=O)Nc2ccc(C(F)(F)F)cc2)Oc2ncc(C3=CCCC3)cc2C1=O	-15	-3[16.7 µM]
COc1ccc(S(=O)(=O)Nc2ccc3c(c2)C(=O)N([C@H](C)CO)C[C@@H](C)[C@@H](CN(C)C(=O)Nc2ccc(C(F)(F)F)cc2)OCCCC[C@@H](C)O3)cc1	-16	16[16.7 µM]
CO[C@H]1CN(C)C(=O)c2cc(NC(=O)c3nc4ccccc4s3)ccc2OC[C@H](C)N(Cc2ccncc2)C[C@@H]1C	1	38[16.7 µM]
CCCN(C)C[C@@H]1Oc2cc(C#CCC(C)C)ccc2S(=O)(=O)N([C@@H](C)CO)C[C@@H]1C	-2	-4[16.7 µM]
O=C(C[C@@H]1C=C[C@H](NC(=O)Nc2ccc(F)cc2)[C@H](CO)O1)NCc1cccc(F)c1	-5	-1[16.7 µM]
CN(C)CC(=O)N[C@@H]1CC[C@H](CC(=O)NCCN2CCCCC2)O[C@@H]1CO	-16	5[16.7 µM]
C[C@@H]1CCCCO[C@@H](CN(C)Cc2ccc(C(F)(F)F)cc2)[C@H](C)CN([C@@H](C)CO)C(=O)c2cc(NS(C)(=O)=O)ccc2O1	17	11[16.7 µM]
C[C@@H]1CN([C@@H](C)CO)C(=O)Cc2cc(NC(=O)CCN3CCOCC3)ccc2O[C@@H]1CN(C)C(=O)Nc1cccc2ccccc12	4	-4[16.7 µM]
C[C@H]1CN([C@@H](C)CO)C(=O)Cc2cc(NC(=O)C3CCCCC3)ccc2O[C@H]1CN(C)C(=O)Nc1cccc2ccccc12	1	-1[16.7 µM]
CO[C@H]1CN(C)C(=O)c2cc(NS(=O)(=O)c3cccc(Cl)c3)ccc2OC[C@@H](C)NC[C@H]1C	-13	-2[16.7 µM]
CO[C@H]1CN(C)C(=O)c2ccc(NC(=O)C3CCCCC3)cc2OC[C@H](C)N(C(=O)c2ccccc2)C[C@@H]1C	8	2[16.7 µM]
O=C(C[C@@H]1C[C@H]2c3cc(NC(=O)Nc4ccccc4F)ccc3O[C@H]2[C@@H](CO)O1)NCc1ccccn1	-18	-2[16.7 µM]
N#C[C@H]1[C@@H](c2ccc(-c3ccccc3F)cc2)[C@@H](CO)N1C(=O)Cc1ccccc1	-5	-7[16.7 µM]
CCC(=O)Nc1ccc2c(c1)C(=O)N(C)[C@@H]1CC[C@@H](CC(=O)N[C@H](C)c3ccccc3)O[C@@H]1CO2	-4	7[16.7 µM]
C[C@@H]1CN([C@H](C)CO)C(=O)c2cc(NS(=O)(=O)c3ccc(Cl)cc3)ccc2O[C@@H]1CN(C)Cc1ccc(Cl)c(Cl)c1	12	?
CN(C)C(=O)c1cccc(-c2ccc([C@@H]3[C@@H](C#N)N(C(=O)C4CCCCC4)[C@H]3CO)cc2)c1	3	1[16.7 µM]
C[C@@H]1CN([C@@H](C)CO)C(=O)c2cc(-c3ccc(F)cc3)cnc2O[C@H]1CN(C)C(=O)Nc1ccccc1F	18	-3[16.7 µM]
CN1C(=O)c2cc(NC(=O)Nc3ccccc3F)ccc2OC[C@H]2O[C@@H](CC(=O)O)CC[C@@H]21	-3	10[16.7 µM]
Cc1ccc(S(=O)(=O)N(C)C[C@@H]2Oc3c(NC(=O)c4ccncc4)cccc3C(=O)N([C@@H](C)CO)C[C@@H]2C)cc1	-8	-7[16.7 µM]
C[C@@H]1CN([C@H](C)CO)C(=O)c2cc(C3=CCCC3)cnc2O[C@H]1CN(C)Cc1ccc(F)cc1	8	16[16.7 µM]
Cc1noc(C)c1S(=O)(=O)Nc1ccc2c(c1)CC(=O)N([C@@H](C)CO)C[C@@H](C)[C@H](CN(C)CC1CC1)O2	0	0[16.7 µM]
C[C@@H]1CCCCO[C@@H](CN(C)C)[C@H](C)CN([C@@H](C)CO)C(=O)c2cc(NC(=O)CCC(F)(F)F)ccc2O1	2	16[16.7 µM]
C[C@H](CO)N1C[C@H](C)[C@H](CN(C)C(=O)Nc2ccc(C(C)(C)C)cc2)OCc2cn(nn2)CCCC1=O	-3	-2[16.7 µM]
COc1ccc(S(=O)(=O)Nc2ccc3c(c2)C(=O)N([C@@H](C)CO)C[C@@H](C)[C@H](CN(C)Cc2ccc(C(=O)O)cc2)O3)cc1	-7	6[16.7 µM]
COc1ccc(S(=O)(=O)N(C)C[C@H]2Oc3ccc(NC(=O)Nc4ccc5c(c4)OCO5)cc3CC(=O)N([C@H](C)CO)C[C@@H]2C)cc1	-13	-16[16.7 µM]
CC(=O)n1cc([C@@H]2C=C(C(=O)N3CCCCCCC3)O[C@H](OCCCCO)C2)c2ccccc21	-1	-4[16.7 µM]
C[C@@H]1CN([C@H](C)CO)S(=O)(=O)c2ccc(-c3cccc(C#N)c3)cc2O[C@@H]1CN(C)C(=O)c1ccncc1	-13	7[16.7 µM]
C[C@H]1CN([C@@H](C)CO)S(=O)(=O)c2ccc(-c3ccccc3)cc2O[C@@H]1CN(C)Cc1ccccc1	13	42[16.7 µM]
C[C@H](CO)N1C[C@H](C)[C@@H](CN(C)C(=O)Cc2ccccc2)Oc2cc(-c3ccccc3)ccc2S1(=O)=O	26	-24[16.7 µM]
C[C@H](CO)N1C[C@H](C)[C@@H](CN(C)Cc2ccc(Oc3ccccc3)cc2)Oc2ccc(NS(=O)(=O)c3ccc(Cl)cc3)cc2CC1=O	10	12[16.7 µM]
O=C(N[C@@H]1CC[C@@H](CCNC(=O)C2CC2)O[C@@H]1CO)c1ccccn1	-10	5[16.7 µM]
COCC(=O)Nc1ccc2c(c1)C(=O)N(C)[C@@H]1CC[C@@H](CC(=O)NCc3cccc(F)c3)O[C@@H]1CO2	-11	-2[16.7 µM]
CO[C@H]1CN(C)C(=O)c2cc(NS(=O)(=O)c3ccccc3)ccc2OC[C@H](C)N(Cc2ccccn2)C[C@H]1C	-14	12[16.7 µM]
C[C@@H]1CCCCO[C@@H](CN(C)Cc2ccc3c(c2)OCO3)[C@H](C)CN([C@@H](C)CO)C(=O)c2cc(NS(C)(=O)=O)ccc2O1	3	4[16.7 µM]
CC(=O)N(C)C[C@@H]1Oc2cc(C#CC3CC3)ccc2S(=O)(=O)N([C@@H](C)CO)C[C@@H]1C	-5	1[16.7 µM]
C[C@@H]1CN([C@@H](C)CO)C(=O)Cc2cc(N(C)C)ccc2O[C@H]1CN(C)S(=O)(=O)c1cccs1	11	21[16.7 µM]
C[C@H]1CN([C@@H](C)CO)C(=O)CCCn2cc(nn2)CO[C@@H]1CN(C)Cc1cccnc1	4	3[16.7 µM]
Cc1ccc(NC(=O)Nc2ccc3c(c2)C(=O)N(C)[C@H]2CC[C@@H](CC(=O)O)O[C@H]2CO3)cc1	-14	1[16.7 µM]
C[C@@H]1CCCCO[C@H](CN(C)S(=O)(=O)c2ccc(F)cc2)[C@@H](C)CN([C@@H](C)CO)C(=O)c2cc(NC(=O)Nc3ccc(C(F)(F)F)cc3)ccc2O1	-7	38[16.7 µM]
C[C@@H]1CN([C@@H](C)CO)C(=O)c2cc(NC(=O)Cn3cnnn3)ccc2O[C@H]1CN(C)CC1CCCCC1	-12	14[16.7 µM]
C[C@@H]1CN([C@@H](C)CO)S(=O)(=O)c2ccc(C#CCN(C)C)cc2O[C@H]1CN(C)C(=O)c1ccccc1F	-3	11[16.7 µM]
Remaining list, next part
SMILES	UUG fidelity	HIV Env fusion
Cc1ccc(S(=O)(=O)Nc2ccc3c(c2)C(=O)N([C@H](C)CO)C[C@H](C)[C@@H](CN(C)C(=O)CCCN(C)C)OCCCC[C@H](C)O3)cc1	26	-17[16.7 µM]
O=C(C[C@H]1C[C@H]2c3cc(NC(=O)c4ccc5c(c4)OCO5)ccc3O[C@H]2[C@@H](CO)O1)NCc1cccc(F)c1	-12	-10[16.7 µM]
C[C@@H]1CN([C@@H](C)CO)C(=O)c2cc(Br)cnc2O[C@H]1CN(C)CC1CCCC1	-7	3[16.7 µM]
C[C@@H]1CN([C@@H](C)CO)C(=O)c2cc(NC(=O)CCN3CCOCC3)ccc2O[C@H]1CN(C)Cc1ccc2c(c1)OCO2	8	-6[16.7 µM]
O=C(CN1CCOCC1)N[C@H]1CC[C@@H](CCNC(=O)C2CCCCC2)O[C@@H]1CO	-8	1[16.7 µM]
CCCN(C)C[C@@H]1Oc2cc(C#CC3CCCC3)ccc2S(=O)(=O)N([C@@H](C)CO)C[C@H]1C	-1	20[16.7 µM]

Gathered by group, those above with a CF3 group.
SMILES	UUG fidelity	HIV Env fusion
C[C@@H]1CCCCO[C@@H](CN(C)CC2CC2)[C@H](C)CN([C@@H](C)CO)C(=O)c2cc(NC(=O)Nc3ccc(C(F)(F)F)cc3)ccc2O1	17	12[16.7 µM]
C[C@H](CO)N1C[C@H](C)[C@H](CN(C)Cc2ccc(C(=O)O)cc2)OCCCC[C@H](C)Oc2ccc(NC(=O)Nc3ccc(C(F)(F)F)cc3)cc2C1=O	11	10[16.7 µM]
C[C@H](CO)N1C[C@H](C)[C@@H](CN(C)C(=O)Nc2ccc(C(F)(F)F)cc2)Oc2ncc(C3=CCCC3)cc2C1=O	-15	-3[16.7 µM]
COc1ccc(S(=O)(=O)Nc2ccc3c(c2)C(=O)N([C@H](C)CO)C[C@@H](C)[C@@H](CN(C)C(=O)Nc2ccc(C(F)(F)F)cc2)OCCCC[C@@H](C)O3)cc1	-16	16[16.7 µM]
C[C@@H]1CCCCO[C@@H](CN(C)Cc2ccc(C(F)(F)F)cc2)[C@H](C)CN([C@@H](C)CO)C(=O)c2cc(NS(C)(=O)=O)ccc2O1	17	11[16.7 µM]
C[C@@H]1CCCCO[C@@H](CN(C)C)[C@H](C)CN([C@@H](C)CO)C(=O)c2cc(NC(=O)CCC(F)(F)F)ccc2O1	2	16[16.7 µM]
C[C@@H]1CCCCO[C@H](CN(C)S(=O)(=O)c2ccc(F)cc2)[C@@H](C)CN([C@@H](C)CO)C(=O)c2cc(NC(=O)Nc3ccc(C(F)(F)F)cc3)ccc2O1	-7	38[16.7 µM]

Some of these compounds in order of their number in UUG fidelity, highest first.
SMILES	UUG fidelity	HIV Env fusion
C[C@@H]1CN([C@@H](C)CO)C(=O)c2cc(NC(=O)CCN3CCOCC3)ccc2O[C@H]1CN(C)Cc1ccc2c(c1)OCO2	8	-6[16.7 µM]
C[C@@H]1CN([C@@H](C)CO)C(=O)c2cc(Br)cnc2O[C@H]1CN(C)CC1CCCC1	-7	3[16.7 µM]
O=C(C[C@H]1C[C@H]2c3cc(NC(=O)c4ccc5c(c4)OCO5)ccc3O[C@H]2[C@@H](CO)O1)NCc1cccc(F)c1	-12	-10[16.7 µM]

Source: PubChem BioAssay

Only part of the results is shown; the hit share may differ from the screen's.
